# KCNQ2 block: KCNQ2 potassium channel inhibitors, primary screen, cell-based, CHO-K1, FluxOR thallium flux, B-score (AID 2156); O88943; actives 1.1% (n = 310,000); 20 min; stronger effect = lower value; only compounds with negative scores are shown here; some inactives read as strong as hits; B-score at 10 µM;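 active = fluorescence ratio B-score at most minus 3 library SDs, with starting brightness B-score within 2 library SDs, cut at about -5.5 in these data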
# Target sequence (O88943 whole entry, looked up): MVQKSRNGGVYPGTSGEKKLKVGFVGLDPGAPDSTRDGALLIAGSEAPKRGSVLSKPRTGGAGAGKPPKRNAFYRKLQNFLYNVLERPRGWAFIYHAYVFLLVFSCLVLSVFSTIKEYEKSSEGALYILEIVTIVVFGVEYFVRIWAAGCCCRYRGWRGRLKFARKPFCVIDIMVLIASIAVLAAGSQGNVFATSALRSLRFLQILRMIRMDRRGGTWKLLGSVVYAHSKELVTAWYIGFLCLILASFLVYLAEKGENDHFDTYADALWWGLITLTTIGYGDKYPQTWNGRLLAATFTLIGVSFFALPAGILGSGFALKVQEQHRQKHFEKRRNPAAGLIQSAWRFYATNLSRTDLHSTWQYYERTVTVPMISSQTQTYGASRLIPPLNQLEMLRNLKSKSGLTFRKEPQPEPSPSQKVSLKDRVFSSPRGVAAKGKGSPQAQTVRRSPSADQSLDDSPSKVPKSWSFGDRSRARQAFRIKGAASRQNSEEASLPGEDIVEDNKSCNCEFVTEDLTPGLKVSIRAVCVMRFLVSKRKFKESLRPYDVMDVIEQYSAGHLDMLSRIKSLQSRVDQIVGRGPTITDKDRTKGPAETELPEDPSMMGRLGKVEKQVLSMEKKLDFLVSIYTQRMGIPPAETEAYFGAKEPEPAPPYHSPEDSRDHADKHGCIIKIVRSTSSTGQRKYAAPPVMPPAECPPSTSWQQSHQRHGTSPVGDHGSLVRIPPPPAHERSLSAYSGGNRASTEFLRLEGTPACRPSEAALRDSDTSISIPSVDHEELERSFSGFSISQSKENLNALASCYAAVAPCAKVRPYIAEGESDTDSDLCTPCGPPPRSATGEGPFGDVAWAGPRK
# KCNQ2 block baseline: second read-out of KCNQ2 block, no call of its own (marks repeat the call); B-score; measured here: initial fluorescence intensity artifact check;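 brightness before thallium and not channel activity; 0 = typical well and far values either way flag optical interference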
# * marks the source's active call; other numbers are inactive results; i = inactive. Some of the compounds tested; count on the stated rates, not on these rows.
SMILES,KCNQ2 block,KCNQ2 block baseline
COCc1cc(=O)[nH]c(SCCS(=O)(=O)c2ccc(Cl)cc2Cl)n1,i,1.4
O=C(N/N=C\c1ccc(OC(=O)c2cccs2)cc1)c1ccc(Cl)cc1,i,-0.09
O=C(COC(=O)c1cc(Cl)cc(Cl)c1)NCCN1C(=O)CSC1=O,i,0.81
COc1cccc(NC(=O)NC(=O)c2c(C)cc(Cl)nc2Cl)c1,i,0.88
Cc1nc2ccccc2nc1OCc1ccc([N+](=O)[O-])cc1,i,1.9
CC(=O)n1nc(-c2ccccc2)nc1NCc1cccs1,i,-0.87
CC(=O)N=c1sc2c3ccccc3ccc2n1C,i,-1.3
Cc1[nH]c2ccccc2c1/C=N/NC(=O)c1cc(-c2cccs2)[nH]n1,i,-0.03
Cc1c(C)n(C(=O)CSc2nncn2C)c2ccccc12,i,-0.91
COc1cccc(NC(=O)CN(C)C(=O)c2cc3c(s2)CCC(C)C3)c1 (stereo not drawn),i,0.2
COc1ccc2cc(-c3csc(-c4cccnc4)n3)ccc2c1,i,-2.1
CCNC(=O)C(=O)c1c(-c2ccccc2)[nH]c2ccccc12,i,2.6
O=C(NCCOc1ccccc1)c1ccc2c(c1)OCO2,i,0.79
CCN(CC(=O)Nc1ccc2c(c1)OCCO2)CC(=O)Nc1cc(C)on1,i,0.09
Cc1cc(C)cc(NC(=S)NCCCN2CCOCC2)c1,i,1.3
Cc1nc2c(C)cccc2cc1C(=O)N/N=C/c1ccc(C(=O)O)cc1,i,-0.54
CCc1nc2ccc(C(=O)N3CCN(CC)CC3)cc2nc1CC,i,0.16
Clc1ccc(Cl)c(-c2nc(-c3ccncc3)no2)c1,i,1.6
Cc1ccc(-n2c(C)nnc2SCC(=O)NNC(=O)c2ccco2)cc1,i,-1.4
Cc1ccc(SC2=C(C(=O)O)CCCC2)cc1,i,-0.81
COc1ccccc1NC(=O)C1=C(C)Nc2ncnn2C1c1ccc(C)o1 (stereo not drawn),i,-2.3
N#C/C(=C(/O)Cc1ccccc1)P(=O)(c1ccccc1)c1ccccc1,i,-1.8
COCCC1CCCCN1C(=O)c1ccc(OC2CCN(C(C)=O)CC2)c(OC)c1 (stereo not drawn),i,-0.2
CCOc1ccc(NC(=O)CCNc2c(N3CCCC3)c(=O)c2=O)cc1,i,-2

# Continued (7 carried over from the part before).
SMILES,KCNQ2 block,KCNQ2 block baseline
Clc1ccc(Cl)c(-c2nc(-c3ccncc3)no2)c1,i,1.6
Cc1ccc(-n2c(C)nnc2SCC(=O)NNC(=O)c2ccco2)cc1,i,-1.4
Cc1ccc(SC2=C(C(=O)O)CCCC2)cc1,i,-0.81
COc1ccccc1NC(=O)C1=C(C)Nc2ncnn2C1c1ccc(C)o1 (stereo not drawn),i,-2.3
N#C/C(=C(/O)Cc1ccccc1)P(=O)(c1ccccc1)c1ccccc1,i,-1.8
COCCC1CCCCN1C(=O)c1ccc(OC2CCN(C(C)=O)CC2)c(OC)c1 (stereo not drawn),i,-0.2
CCOc1ccc(NC(=O)CCNc2c(N3CCCC3)c(=O)c2=O)cc1,i,-2
O=C(Nn1c(-c2ccncc2)nc2ccccc2c1=O)c1ccc([N+](=O)[O-])cc1Cl,i,0.36
CCN(CC)S(=O)(=O)c1cccc(C(=O)NCC(=O)OCC(=O)NCc2ccccc2)c1,i,0.1
NC(=O)c1c(N)sc2c1CCCCC2,i,-0.75
COc1ccc(NC(=O)CSc2ccc(-c3sc(C)nc3C)nn2)cc1,i,0.72
CC(C)(C)NC(=O)NC(=O)COC(=O)Cc1ccc(Cl)cc1Cl,i,0.52
O=C1CC2(CCN(C(=O)c3ccccc3Cl)CC2)Oc2ccccc21,i,0.2
O=C(CSc1nc(-c2ccccc2)cs1)NCc1ccco1,i,-0.93
O=C(NC(CCl)c1ccccc1)c1ccc(Cl)cc1 (stereo not drawn),i,-0.73
COc1cccc(-n2c(CN3CCN(c4ccccn4)CC3)nc3ccc([N+](=O)[O-])cc3c2=O)c1,i,1.8
Cc1ccc(C)c(N2CCN(C(=O)c3ccc(CS(=O)Cc4cccc(Cl)c4)o3)CC2)c1 (stereo not drawn),i,0.8
Cc1ccc(C)c2c1cc(C)c1nnc(SCc3ccccn3)n12,i,-0.7
CCN(CC)c1ccc(-c2nnc(SCC(=O)Nc3ccccc3C#N)n2-c2ccccc2)cc1,i,-2.1
Cc1cc(NC(=O)NC(=O)c2ccc(F)cc2F)n[nH]1,i,-0.01
Cc1ccc(S(=O)(=O)Nc2cc(NC(=O)CN3CCOCC3)ccc2Cl)cc1,i,0.68
Cn1cnc(S(=O)(=O)Nc2ccccc2C(=O)NCC2CC2)c1,i,0.05
CC(Cc1cccs1)NC(=O)Nc1ccc(Cl)c(Cl)c1 (stereo not drawn),i,-2.7
CCOCCCNC(=O)C(NC(=O)Cc1cccs1)c1ccc(OC)cc1 (stereo not drawn),i,0.91
CN(C)c1nc2c(N)ncnc2n1[C@H]1O[C@@H](CO)[C@H](O)[C@@H]1O,i,0.32
CCCCn1c(N)c(N(CCC(C)C)C(=O)c2ccc(C)c(S(=O)(=O)N3CCOCC3)c2)c(=O)[nH]c1=O,i,-3.1
CCS(=O)(=O)N1CCC(C(=O)NCc2ccc(OC)cc2)CC1,i,-0.23
O=C(Nc1cccc(C(F)(F)F)c1)OCCN1CCN(Cc2ccccc2)CCC1=O,i,-0.28
COC(=O)c1ccc(-c2ccco2)n1Cc1nc(-c2ccc(OC)c(OC)c2)oc1C,i,0.49
CC(=O)c1c(C)oc2ccc(N(C(=O)c3ccncc3)S(=O)(=O)c3ccccc3)cc12,i,-1.6
CN(C)c1ccnc(Oc2ccc(Cl)cc2)c1C#N,i,0.75
CCOc1ccc(NC(=O)C2C3CC/C=C\CCC32)cc1 (stereo not drawn),i,0.62
COc1ccccc1N1CCN(C(=O)COc2ccc(C)cc2Br)CC1,i,-0.32
COc1ccc(-c2csc3ncnc(N4CCN(S(=O)(=O)c5cccc(Br)c5)CC4)c23)cc1,i,1
Cc1cc(C)cc(Oc2ccccc2/C=N\O)c1,i,0.6
CCC1(c2ccccc2)NC(=O)N(Cc2ccc(C(=O)OC)cc2)C1=O (stereo not drawn),i,0.26
Cc1onc(-c2c(F)cccc2Cl)c1C(=O)NCc1ccc2c(c1)OCO2,i,-0.15
CC(=O)Nc1ccc(S(=O)(=O)N(C)c2ccc(OCC(=O)OCC(=O)Nc3ccc(OC(F)F)cc3)cc2)cc1,i,0.37
C/C(=N\NC(=O)CNC(=O)C(c1ccccc1)c1ccccc1)c1ccccc1,i,1
CCCCCC(=O)NC(Cc1ccc(OC)c([N+](=O)[O-])c1)C(=O)O (stereo not drawn),i,-1.3
O=C(NCCCN1CCN(c2ccccc2F)CC1)Nc1ccccc1[N+](=O)[O-],i,0.09
Cc1cccnc1CNC(=O)C1CCC(=O)N(CCc2cccc(F)c2)C1 (stereo not drawn),i,-1.3
CCN(CC)C(=O)CSC1=N/C(=C/c2ccco2)C(=O)N1c1ccc(OC)c(Cl)c1,i,0.97
N[C@@H](Cc1ccccc1)C(=O)N1CCC(C(=O)NCC(=O)NCC(=O)O)CC1,i,1.2
COc1cc(-c2nnc(COC(=O)c3cc(C)nc4ccc(C)cc34)o2)cc(OC)c1OC,i,-0.37
COc1ccc(N2CCN(C(=O)Cn3cncn3)CC2)cc1,i,0.28
N/C(=N/OCC(=O)Nc1cccc2ccccc12)c1nonc1N,i,0.45
COc1ccc(Oc2ccccc2C=O)cc1,i,-1.2
Cc1c(C(=O)N/N=C/c2ccc(Cl)cc2)[nH]c2ccc(Cl)cc12,i,0.9
CCOC(=O)C1CCN(C(=O)CCc2nnc3ccc(N4CCN(C)CC4)nn23)CC1,i,0.09
COc1ccc(-c2nc(-c3ccccc3)c(-c3cc([N+](=O)[O-])ccc3C)[nH]2)cc1OC,i,-0.13
COc1ccccc1NC(=O)N1CCc2[nH]c3ccc(F)cc3c2C1,i,0.03
Cc1c(Cl)ccc(S(=O)(=O)N2CCN=C2c2ccccc2)c1Cl,i,0.01
COc1cc(SC)ccc1C(=O)NC(C)C,i,2
Clc1ccccc1/C=C/c1ccnc2ccccc12,i,0.2

# The final 2 compounds of the part above come first, to join the parts.
SMILES,KCNQ2 block,KCNQ2 block baseline
COc1cc(SC)ccc1C(=O)NC(C)C,i,2
Clc1ccccc1/C=C/c1ccnc2ccccc12,i,0.2
CCCCC(=O)N/N=C(\C)CC(=O)Nc1ccccc1Br,i,-1.3
Cc1ccc(NC(=O)CSc2nc3ccccc3c(=O)n2CCCC(=O)N2CCCC2)cc1,i,1.7
Cc1ccc(S(=O)(=O)NNC(=O)CCC(=O)Nc2ccc(C)cc2C)cc1,i,1.6
O=C1Nc2ccccc2Oc2cc([N+](=O)[O-])cc(Oc3ccccc3)c21,i,-0.02
Cc1ccc(N=Nc2cc(C)ccc2N)cc1,i,-1.3
CCn1c(C)nc2cc(C(=O)OCCC(F)(F)F)ccc21,i,0.95
C=C1CCC[C@]2(C)C[C@H]3OC(=O)C(CNCCN(C)C)[C@H]3CC12 (stereo partly drawn),i,0.78
Cc1cc(C)c(C#N)c(N2CCN(CCOc3ccc(Cl)cc3)CC2)n1,i,1.2
CCN(CC)S(=O)(=O)c1ccc(N2CCOCC2)c(NC(=O)c2ccc(OC)c([N+](=O)[O-])c2)c1,i,1.6
COc1ccccc1-c1nnc(SCc2nc3ccccc3[nH]2)n1C,i,-1.3
O=C(O)c1cc2sccc2s1,i,0.65
Cc1ccc(S(=O)(=O)N2CCOC2C(Cl)(Cl)Cl)cc1 (stereo not drawn),i,-2.1
CCc1noc(C)c1C(=O)Nc1nc(-c2ccccc2)cs1,i,2.3
COc1cc(C(=O)NCCOc2ccccc2)cc(OC)c1OC,i,-0.63
CC1(C)Cc2c(cnn2-c2ccccc2)C(NC(=O)CCc2ccncc2)C1 (stereo not drawn),i,3
Cc1nnc2sc(-c3csc4c3CCCC4)nn12,i,2.5
Clc1ccc(-c2n[nH]c3c2CCCC3)cc1,i,0.01
Cc1ccc(S(=O)(=O)CC(=O)Nc2ccccn2)cc1,i,-0.93
Cc1ccc(NC(=O)CSc2ccc(Br)cc2)cc1S(=O)(=O)N1CCOCC1,i,-0.77
CCS(=O)(=O)Nc1ccc(C(=O)CC2(O)C(=O)Nc3ccccc32)cc1 (stereo not drawn),i,-2.7
O=C(Nc1cc(Cl)c(O)c(Cl)c1)C1CCCO1 (stereo not drawn),i,1.1
COCCCNC(=O)c1ccc(Cn2c(=O)c3ccccc3n(CC(=O)NCCc3ccc(OC)c(OC)c3)c2=O)cc1,i,1.5
Nc1c(-c2cccs2)cnn1-c1nc(-c2ccc(F)cc2)cs1,i,0.9
COc1ccc(-c2c(-c3ccccc3OC)sc3ccccc23)cc1,i,0.84
O=C(N/N=C/c1ccc(OC(=O)c2ccc(Br)cc2)cc1)c1ccncc1,i,-0.83
Cc1c(Cl)cccc1NC(=S)N1CCN(c2ccc([N+](=O)[O-])cn2)CC1,i,-0.28
COc1ccccc1NC(=O)C1=C(C)NC2=C(C(=O)CC(c3ccc(OC)c(OC)c3)C2)C1c1coc2ccccc2c1=O (stereo not drawn),i,-0.5
O=C(NN1CCOCC1)c1ccccc1Br,i,1.5
COc1ccc(N2CCN(C(=O)CSc3nnnn3-c3ccc4c(c3)OCCO4)CC2)cc1,i,0.25
Cc1cc(OCc2cc(C(=O)N(C)C3CCOCC3)no2)cc(C)c1Cl,i,-0.16
CCN(CC(=O)NCCc1ccc(F)cc1)Cc1nc2ccccc2c(=O)[nH]1,i,-0.39
COc1ccccc1NC(=O)c1ccccc1-c1nc(-c2ccccc2OC)no1,i,-3
CC1(C)CC(=O)C(CC(=O)NC(=O)NCc2ccccc2)=C(O)C1,i,0.01
O=C(NCc1cccs1)C1CCCN1C(=O)Nc1ccccc1Cl (stereo not drawn),i,-2.1
Cc1ccc(Nc2cc(C)nc3nc(C)nn23)c(C)c1,i,-1.9
COc1cccc(/C=N/n2c(COc3ccccc3)n[nH]c2=S)c1OC,i,4.5

# Profiles, looked up by structure.
# COc1ccccc1NC(=O)C1=C(C)NC2=C(C(=O)CC(c3ccc(OC)c(OC)c3)C2)C1c1coc2ccccc2c1=O (stereo not drawn) across the screens: KCNQ2 block = i; KCNQ2 block baseline = -0.5
# Cc1ccc(Nc2cc(C)nc3nc(C)nn23)c(C)c1 across the screens: KCNQ2 block = i; KCNQ2 block baseline = -1.9
# O=C(NN1CCOCC1)c1ccccc1Br across the screens: KCNQ2 block = i; KCNQ2 block baseline = 1.5

# (list continues)
SMILES,KCNQ2 block,KCNQ2 block baseline
COc1ccc(S(=O)(=O)/C(C#N)=C/Nc2ccc(NC(C)=O)cc2)cc1,i,3.8
CCc1ccc(-c2cc(C(F)(F)F)n3nc(C(=O)Nc4cnn(Cc5ccc(C)cc5)c4)cc3n2)s1,i,-0.01
Cc1ccccc1NC(=O)c1oc(=O)c2ccccc2c1-c1ccccc1,i,-0.54
CSCCC(NC(=O)c1ccccc1)C(=O)OCC(=O)c1ccc[nH]1 (stereo not drawn),i,1.1
O=C(COC(=O)c1ccccc1)NCc1cccs1,i,0.93
Cc1cccc(N2C(=O)CC(N3CCN(c4ccccn4)CC3)C2=O)c1 (stereo not drawn),i,-0.73
CCOc1ccc(NC(=O)CSc2nnc(C3CC3)n2C)cc1,i,1
COc1ccc(-c2nc3ccccc3o2)cc1OC,i,0.25
COCC(C)n1c(C)cc(C(=O)COc2ccc(C)nc2[N+](=O)[O-])c1C (stereo not drawn),i,1.4
O=C(c1cncs1)N1CCCC(CNS(=O)(=O)c2cccs2)C1 (stereo not drawn),i,-0.96
CN(C)c1ccccc1C(=O)N1CCCC(C(=O)c2ccc3ccccc3c2)C1 (stereo not drawn),i,-1.8
O=c1cc(CN2CCc3ccccc3C2)nc2sccn12,i,1.4
Cc1cc(C)c(C2C(C#N)=C(N)Oc3n[nH]c(C)c32)cc1CN1CCOCC1 (stereo not drawn),i,0.79
CCN(CC)S(=O)(=O)c1cc([N+](=O)[O-])ccc1NNC(=O)Nc1ccccc1OC,i,0.34

# From PubChem
